# Source: PubChem
# INS promoter inh: TRM-6 insulin promoter activity inhibition; TRM-6 cells (human fetal islet line), insulin promoter-eGFP reporter, imaging; reporter expression induced with tamoxifen; inhibition, % at 2 µM; 130,000 tested, 0.9% active; AID 1273;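 active means inhibition above the mean plus 3 SD, with well images judged a real hit on visual review, cut at about 60% in these data, passing the limit was not always enough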
# GALR2 agonist: activates the human galanin receptor 2 | O43603 | GALR2-expressing cells, agonist activation read-out | activation, %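 (tested at 5 µM)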 | 140,000 tested, 0.48% active;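 active means above mean plus 3 SD of all compounds, about 5% in these data, not always enough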;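 further: 0% = vehicle buffer wells and 100% = reference agonist at full effect; tested in CHO reporter cells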
# Target sequence (O43603 whole entry, looked up): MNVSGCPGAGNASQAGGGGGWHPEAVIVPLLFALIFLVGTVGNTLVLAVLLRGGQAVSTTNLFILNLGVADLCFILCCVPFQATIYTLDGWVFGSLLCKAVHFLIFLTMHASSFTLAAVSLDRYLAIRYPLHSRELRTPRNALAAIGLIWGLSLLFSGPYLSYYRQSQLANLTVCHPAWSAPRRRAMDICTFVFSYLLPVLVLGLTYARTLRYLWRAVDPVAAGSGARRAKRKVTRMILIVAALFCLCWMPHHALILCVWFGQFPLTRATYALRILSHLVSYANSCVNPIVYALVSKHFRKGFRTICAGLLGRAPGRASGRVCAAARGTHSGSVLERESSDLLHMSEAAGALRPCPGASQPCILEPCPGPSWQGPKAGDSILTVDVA
# RGS16-Gao: modulates binding between human RGS16 and Galphao; O15492+P09471; binding response (% of control), % at 10 µM; 220,000 tested, 0.38% active; bead-based flow cytometry RGS16-Galphao binding, fluorescence; actives lie on both sides;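 active means below 25% or above 175%, edge rows of some plates excepted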;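 further: Galphao activated by GDP with aluminum fluoride before binding; 100% = wells without compound and 0% = beads without RGS; some results beyond the cut were filed as inactive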
# Target sequence (O15492 whole entry, looked up): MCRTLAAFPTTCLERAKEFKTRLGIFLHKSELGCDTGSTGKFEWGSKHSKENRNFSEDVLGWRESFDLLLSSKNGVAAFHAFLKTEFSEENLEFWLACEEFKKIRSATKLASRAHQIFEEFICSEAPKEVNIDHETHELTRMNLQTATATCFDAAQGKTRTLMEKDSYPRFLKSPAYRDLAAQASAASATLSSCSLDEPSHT
# Target sequence (P09471 whole entry, looked up): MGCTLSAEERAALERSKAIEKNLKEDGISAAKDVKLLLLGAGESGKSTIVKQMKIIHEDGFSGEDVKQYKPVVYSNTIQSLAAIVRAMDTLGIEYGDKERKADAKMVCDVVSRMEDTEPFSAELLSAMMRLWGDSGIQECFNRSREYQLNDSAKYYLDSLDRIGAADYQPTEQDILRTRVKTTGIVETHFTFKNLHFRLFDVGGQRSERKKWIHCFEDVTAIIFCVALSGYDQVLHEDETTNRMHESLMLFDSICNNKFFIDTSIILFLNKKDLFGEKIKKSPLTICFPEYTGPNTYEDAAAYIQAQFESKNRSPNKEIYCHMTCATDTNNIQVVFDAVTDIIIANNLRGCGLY
# HSV augment: HSV replication enhancement; HSV replication augmentation in cells, fold increase; maximum fold increase; 220,000 tested, 0.005% active;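 active means peak rise of 1.5-fold or more in the series; tested in PC3 cells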;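 further: first round at 10 µM; read as green reporter fluorescence; hits show the peak of a series up to 25 µM; 1 = signal of infected wells without compound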
# PKD1 kinase inh: blocks activity of human protein kinase D1. PKD1 kinase fluorescence polarization assay. inhibition, %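 (about 10 µM by stock and volumes)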. 200,000 tested, 0.056% active;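 active means inhibition of 50% or more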;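 further: controls were vehicle for no effect and a reference inhibitor for full effect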
# INS promoter inh cell count: also measured in INS promoter inh; calls as there; normalized cell count, %; measured here: cell count, toxicity; reference of the scale not given here;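 cells exposed to compound for 48 h; stained nuclei by imaging scaled within each plate; lower means fewer cells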
# HSV augment primary fold: recorded beside HSV augment, whose call it bears; fold increase; compound at 10 µM; measured here: primary screen fold increase 10 uM; tested in PC3 cells;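 GFP signal in the first replicate; 1 = infected wells without compound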
# Numbers without * were called inactive; i = inactive; / = not tested or not shown.
# Values run as follows: GALR2 agonist, INS promoter inh cell count, PKD1 kinase inh, INS promoter inh, HSV augment primary fold, RGS16-Gao, HSV augment
S=C(NCCSCc1ccc(Cl)c(Cl)c1)Nc1ccccc1
→ -1.1, 76, 9, 44, 0.96, /, i
CC1CCCCN1C(=O)CSc1nnc(-c2ccc(Cl)s2)o1 (stereo not drawn)
→ -0.2, 98, -2, 30, 0.87, 104, i
COc1ccccc1CN(Cc1cc2cc(C)ccc2[nH]c1=O)Cc1nnnn1Cc1ccco1
→ 2.2, /, -3, /, 1.2, 90, i
CN(C)c1ccc(NC(=O)COC(=O)c2cc(=O)c3ccccc3o2)cc1
→ -1.5, 63*, -5, 67*, 1.1, 103, i
O=c1c(Cc2c(F)cccc2Cl)c(O)ccn1CC1CCCO1 (stereo not drawn)
→ /, 121, -2, -25, 1, 114, i
CCOC(=O)c1cc(CN2CCOCC2)oc1-c1ccccc1
→ -2.3, 118, -5, -29, 1, 91, i
Cn1c(=O)n(CC(=O)Nc2cccnc2)c2ccccc21
→ -2.3, 100, -2, -18, 0.91, /, i
O=C(CCc1nc2ccccc2[nH]c1=O)N/N=C/c1ccccc1
→ /, /, 4, /, 0.95, 99, i
O=C(O)c1ccc(N/N=C/C(Br)=C/c2ccccc2)cc1
→ /, /, /, /, 0.98, 90, i
COCc1cc(=O)n2[nH]c(-c3cccs3)cc2n1
→ /, /, /, /, 0.96, 101, i
CC(=O)NC1(C(F)(F)F)NC(=O)N(C2CCCCC2)C1=O (stereo not drawn)
→ -1.0, 229, -4, -53, 0.89, 99, i
COc1cccc(CNC2CCCC2)c1
→ -0.7, /, 8, /, 1.1, 102, i
Cc1cc2nc(CCN(C(=S)NCC(C)C)C3CCCC3)[nH]c2cc1C
→ 0.1, 152, 4, 4, 0.68, 103, i
O=C(Cn1ccc([N+](=O)[O-])n1)N1CCCCC1
→ /, /, -10, /, 0.94, 101, i
Cn1c(/C(C#N)=C/c2ccc(-c3ccc(S(N)(=O)=O)cc3)o2)nc2ccccc21
→ 0.1, 156, -3, 4, /, 102, /
O=c1c(Cl)c(NCc2ccco2)cnn1C12CC3CC(CC(C3)C1)C2
→ /, 98, 9, 33, 0.92, 98, i
CCn1cc(C(=O)O)c(=O)c2cc(F)c(N3CCN(S(=O)(=O)c4ccc(NC(=O)OC)cc4)CC3)cc21
→ -0.2, 93, -8, 29, 0.78, 46, i
O=C(COc1ccc(Cl)cc1)Nc1ccc2c(c1)CCC2
→ -0.7, 94, -13, 10, 1.3, 103, i
Cc1ccc(NC(=O)CSCC(N)=O)cc1C
→ -2.9, 134, -10, 38, 0.92, 110, i
CN(CCO)c1cc(N2CCCCC2)c2nonc2c1[N+](=O)[O-]
→ /, 98, 0, -21, /, 99, /
O=C(COC(=O)CCC(=O)c1ccc(Cl)cc1)NC1CC1
→ /, 109, 1, -64, 0.98, 67, i
Cc1cc(/C=N/NC(=O)Cn2c3ccccc3c(=O)c3ccccc32)c(C)n1-c1ccc(Cl)cc1
→ 3.5, 60, 3, -21, 0.91, 97, i
CCCc1cc(=O)oc2cc(C)cc(O)c12
→ -1.4, 103, 21, -4, 0.88, 100, i
O=[N+]([O-])c1cc([N+](=O)[O-])c2cccnc2c1Oc1ccccc1O
→ -0.7, /, -10, /, 0.92, 99, i
Cc1cc(C)n(CC(O)COc2ccccc2)n1 (stereo not drawn)
→ -2.3, 37, 3, 22, 0.84, 101, i
Cc1ccc(N2CC(=O)Nc3c(oc4nc(-c5ccccc5)cc(C)c34)C2=O)cc1
→ /, /, /, /, 1, 100, i
CCOC(=O)C1=C(C)Nc2nc(SCc3cccnc3)nn2C1c1ccc(OC)cc1 (stereo not drawn)
→ -0.6, /, 1, /, 0.99, 101, i
O=C(CSc1nnc(-c2ccccc2)o1)NCC1CCCCC1
→ 0.1, 112, -3, -31, 0.7, 103, i
COc1ccccc1NC(=O)C1CCCCN1S(=O)(=O)c1ccc(F)cc1 (stereo not drawn)
→ -3.1, 98, -12, -72, 0.99, 103, i
COc1ccc(-c2c(C#N)c(N)n(N)c(=O)c2C#N)cc1Cl
→ /, 120, 5, 54, 0.91, 100, i
COc1ccc(S(=O)(=O)c2ccc(O)cc2)cc1
→ -2.1, 139, -5, 12, 0.88, 103, i
O=C(NCc1ccco1)C12CN(Cc3ccccc3)CC1C(c1cccc([N+](=O)[O-])c1)=NO2 (stereo not drawn)
→ -0.8, /, 0, /, 0.93, 103, i
COc1cccc(-n2cnc3sc(C)c(C)c3c2=O)c1
→ 0.2, 127, -10, -11, 0.95, 102, i
CC(=O)c1cc(C(c2csc(C(C)=O)c2)c2csc(C(C)=O)c2)cs1
→ -1.3, 126, -7, 69, 0.95, 85, i
O=C(CCc1nc(-c2ccccc2F)no1)Nc1ccc(Oc2ccccc2)cc1
→ -0.8, 113, -4, -162, 1, 103, i
CC(CCc1ccccc1)NC(=O)CN1CCOc2ccccc21 (stereo not drawn)
→ -3.6, /, -6, /, 0.9, /, i
CN(C)CCNc1ccc(Cl)cc1[N+](=O)[O-]
→ -1.5, 77, -9, 17, 0.86, 106, i
N=C1C(c2ccccc2)=C(O)CN1c1cccc(S(N)(=O)=O)c1
→ 0.5, 138, -6, 7, 0.97, 99, i
CC1C(=O)CC(c2ccc([N+](=O)[O-])cc2)NC1c1ccc([N+](=O)[O-])cc1 (stereo not drawn)
→ /, /, 1, /, 1, 99, i
CCSc1ccccc1C(=O)NCc1ccc(S(N)(=O)=O)cc1
→ -2.3, 146, -3, 74, 0.95, 100, i
O=c1[nH]c2cc3c(cc2cc1C(c1nnnn1CC1CCCO1)N1CCCCCC1)OCO3 (stereo not drawn)
→ -3.8, 122, -8, 73, 0.94, 105, i
CC(=O)N(c1ccccc1)C(C)c1nc(C#N)c(C#N)nc1C (stereo not drawn)
→ -2.6, 102, -2, 38, 0.84, 118, i
CCC1SC(CC)C(=O)N(CC(=O)NC2CCCCC2)C1=O (stereo not drawn)
→ /, 81, 2, 8, 0.91, 100, i
O=C(O)CCCC(=O)Nc1ccccc1C(=O)O
→ -2.5, /, -8, /, 0.9, 102, i
C=CCn1c(SCC(=O)Nc2ccc3c(c2)OCCO3)nnc1-c1ccccn1
→ -0.9, /, -3, /, 0.84, 77, i
COc1ccc(C2=NCC(CSc3nnnn3C)S2)cc1 (stereo not drawn)
→ -2.0, 81, 6, -36, 0.91, 106, i
CCCCN1c2cc(C)c(O)cc2C(C(=O)OCC)C1C (stereo not drawn)
→ -1.8, 83, -3, -33, 0.84, 103, i
O=C(N/N=C/c1ccc(OC(F)F)cc1)c1cccc(S(=O)(=O)N2CCOCC2)c1
→ /, /, 1, /, 0.97, 103, i
Cc1cc(C(=O)Nc2ccccc2C(F)(F)F)no1
→ 0.0, /, -13, /, 1.1, 101, i
CCN1CCN(C(=O)CCCn2c(C)c3cnn(-c4ccccc4)c(=O)c3c2C)CC1
→ -1.7, /, 5, /, 1, 151, i
Cc1ccccc1C(=O)NC(=S)NCCC1=CCCCC1
→ /, /, 3, /, 1, 102, i
Cc1ccc(N2C(=O)C(CN3CCOCC3)C2c2ccccc2)cc1 (stereo not drawn)
→ /, 113, 1, -22, 0.93, 93, i
Cc1oc(-c2ccccc2Cl)nc1CSc1nc2c(c(=O)[nH]1)CCC2
→ -0.3, 67, -6, 7, /, 91, /
COc1ccc(NC(=O)C2CCCN(S(=O)(=O)c3cccs3)C2)cc1OC (stereo not drawn)
→ -1.3, 93, -14, -33, 0.8, 102, i
O=C(Nc1ccc(F)cc1F)c1ccc(-n2cncn2)nc1
→ -3.5, 105, 3, -27, 0.93, 32, i
CCn1c(=O)cc(C(F)(F)F)[nH]c1=S
→ /, /, -5, /, 0.9, 100, i
Cc1ccc(NC(=O)C(=O)Nc2ccc(C)cn2)nc1
→ /, 127, -3, -85, 0.94, 99, i
O=c1[nH]nc(SCc2nnc(-c3ccc([N+](=O)[O-])cc3)o2)n1C1CCCCC1
→ /, /, /, /, 1.1, 100, i
COCCNC(=O)CN(c1cccc(OC)c1)S(=O)(=O)c1ccc(C)cc1
→ -1.3, /, 0, /, 1, 102, i
CCCCCC1CC(CC/C(C)=N/NC(N)=O)C(=O)O1 (stereo not drawn)
→ /, /, /, /, 0.85, 98, i

# Two entries from above, with bars between the fields:
Structure | GALR2 agonist | INS promoter inh cell count | PKD1 kinase inh | INS promoter inh | HSV augment primary fold | RGS16-Gao | HSV augment
Cc1ccc(NC(=O)CSCC(N)=O)cc1C | -2.9 | 134 | -10 | 38 | 0.92 | 110 | i
CN(CCO)c1cc(N2CCCCC2)c2nonc2c1[N+](=O)[O-] | / | 98 | 0 | -21 | / | 99 | /

# Gathered by group: the compounds so far with a COOH group (three)
# Values run as follows: GALR2 agonist, INS promoter inh cell count, PKD1 kinase inh, INS promoter inh, HSV augment primary fold, RGS16-Gao, HSV augment
O=C(O)c1ccc(N/N=C/C(Br)=C/c2ccccc2)cc1
→ /, /, /, /, 0.98, 90, i
CCn1cc(C(=O)O)c(=O)c2cc(F)c(N3CCN(S(=O)(=O)c4ccc(NC(=O)OC)cc4)CC3)cc21
→ -0.2, 93, -8, 29, 0.78, 46, i
O=C(O)CCCC(=O)Nc1ccccc1C(=O)O
→ -2.5, /, -8, /, 0.9, 102, i

# The results go on:
# Values run as follows: GALR2 agonist, INS promoter inh cell count, PKD1 kinase inh, INS promoter inh, HSV augment primary fold, RGS16-Gao, HSV augment
COC(=O)Cn1cnc2c(nnn2Cc2ccc(Cl)cc2)c1=O
→ -1.6, /, -12, /, 0.91, 93, i
Cc1ccc(-c2nc(N)sc2CC(=O)OCC(=O)NCC2CCCO2)cc1 (stereo not drawn)
→ -0.1, 99, -8, -32, 0.91, 104, i
CC1=C(C(=O)OC(C)C)C(c2cccs2)C(C(=O)OC(C)C)=C(C)N1
→ -0.7, 168, -6, -11, 0.94, 104, i
O=C1CCCCC(=O)c2ccccc2N1
→ -2.8, 32, -3, 11, 1.1, 104, i
O=C(CN(Cc1ccco1)S(=O)(=O)c1cccs1)Nc1ccccc1C(F)(F)F
→ -2.0, /, 8, /, 1, 100, i
Cc1ccc(N(CC(O)CN2CCCCC2)S(=O)(=O)c2ccccc2[N+](=O)[O-])cc1 (stereo not drawn)
→ /, /, 3, /, 1, 103, i
CSCCCNC(=S)N1CCN(S(=O)(=O)c2cccc(C(F)(F)F)c2)CC1
→ -0.4, 70, -3, -56, 0.99, 45, i
Cc1cc(C(=O)COC(=O)c2ccc[nH]c2=O)c(C)n1CCc1ccc(F)cc1
→ /, 76, -6, 30, 1, 113, i
Cc1cc2nc(Cl)c(Cl)nc2cc1C
→ /, /, /, /, 0.77, 101, i
O=C1c2ccccc2C(=O)N1CC(=O)N1c2ccccc2Sc2ccccc21
→ -2.5, /, -14, /, 1, 99, i
Cc1ccc(-n2c(SCC(=O)NCc3cccs3)nnc2-c2ccoc2C)cc1
→ 0.9, /, 5, /, 1, 109, i
CC1CC(C)CN(C(=O)c2cc(-c3ccccn3)nc3ccccc23)C1 (stereo not drawn)
→ -0.6, 133, 5, -42, 0.93, 101, i
COc1ccc(N=Nc2ccc(N)nc2N)cc1
→ /, /, /, /, 0.94, 105, i
CC(C)C[C@H](NC(=O)Nc1ccccc1F)C(=O)O
→ -3.6, 66, 4, 31, 0.93, 103, i
CNC(=O)COC(=O)c1cc(-c2ccccc2)nn1-c1ccccc1
→ /, 106, -7, 0, 0.98, 109, i

# A draw from above in order of formula weight, highest first.
# Values run as follows: GALR2 agonist, INS promoter inh cell count, PKD1 kinase inh, INS promoter inh, HSV augment primary fold, RGS16-Gao, HSV augment
CSCCCNC(=S)N1CCN(S(=O)(=O)c2cccc(C(F)(F)F)c2)CC1
→ -0.4, 70, -3, -56, 0.99, 45, i
CNC(=O)COC(=O)c1cc(-c2ccccc2)nn1-c1ccccc1
→ /, 106, -7, 0, 0.98, 109, i
Cc1cc2nc(Cl)c(Cl)nc2cc1C
→ /, /, /, /, 0.77, 101, i

# The results go on:
# Values run as follows: GALR2 agonist, INS promoter inh cell count, PKD1 kinase inh, INS promoter inh, HSV augment primary fold, RGS16-Gao, HSV augment
O=C1OC(c2cccs2)=N/C1=C\c1ccc(-c2cccc(Cl)c2)o1
→ -2.8, 134, -11, -41, 0.97, 104, i
O=C(CCCCCCCCCCC(=O)NCc1cccnc1)NCc1cccnc1
→ /, /, /, /, 0.82, 100, i
CCCCOC(=O)c1ccc(NC(=O)c2ocnc2C)cc1
→ -0.1, 134, 4, -14, 0.95, 103, i
CCNC(=O)COC(=O)c1cc(S(=O)(=O)N2CCCCC2)ccc1C
→ /, /, /, /, 1, 101, i
COc1ccccc1/C=C/C(=O)NCC(=O)N/N=C/c1ccc2c(c1)OCO2
→ /, 129, -3, -29, 0.98, 103, i
CCn1ccnc1CN1CCN(CC=C(C)C)C(CCO)C1 (stereo not drawn)
→ /, /, -2, /, 0.99, 97, i
